Screening results deposited in PubChem BioAssay by Broad Institute.
DUX4 txn inh: inhibitors of DUX4-driven ZSCAN4 reporter expression, primary screen, 293T cells, Gaussia and Italica luciferase | 293T-iDUX4 ZSCAN4-Gaussia luciferase reporter, 24 h; stronger effect = lower value | activity change, negative = inhibition, % (concentration not given with the values) | 37,000 tested, 0.8% active;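 active = -10% or lower and over 25 points stronger than a control reporter; inconclusive = -10% or lower with a smaller gap; inactive = above -10%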;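 note: 0% = median of neutral control wells and -100% = median of positive control wells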
DUX4 txn inh difference: recorded beside DUX4 txn inh, whose call it bears; Gaussia minus Italica difference, %; measured here: selective DUX4 reporter inhibition;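 worked out from the two reporters; negative = selective loss of the DUX4 reporter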
DUX4 txn inh control: second read-out of DUX4 txn inh, no call of its own (marks repeat the call); activity change, negative = inhibition, %; measured here: Italica tet-on control reporter;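 0 = neutral control and -100 = positive control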
* = called active by the depositor; ? = inconclusive; nt = no result given; & = joins results of further samples.

SMILES	DUX4 txn inh	DUX4 txn inh difference	DUX4 txn inh control
O=C(C[C@H]1CC[C@H]2[C@@H](COC[C@@H](O)CN2S(=O)(=O)c2ccccc2F)O1)NCc1ccccc1F	1.8	0.7	1.1
C[C@@H]1CCCCO[C@@H](CN(C)C(=O)CCC(F)(F)F)[C@H](C)CN([C@H](C)CO)C(=O)c2cc(NS(=O)(=O)c3cccs3)ccc2O1	0.6	-2.3	2.9
COCC(=O)N1CC2(C1)[C@@H](c1ccccc1)[C@@H](CO)N2C(=O)NC1CCCC1	1.6	-0.4	2.0
CO[C@@H]1CN(C)C(=O)c2ccc(NS(C)(=O)=O)cc2OC[C@H](C)N(Cc2ccccc2)C[C@H]1C	-2.9	-4.2	1.3
Cc1cccc(-c2ccc([C@H]3[C@@H](CO)N4C(=O)CN(C(=O)c5ccc6c(c5)OCO6)C[C@@H]34)cc2)c1	?	nt	nt
CC(=O)N1[C@@H]2Cn3c(ccc(-c4ccccc4)c3=O)[C@H]1[C@@H](C(=O)NCC1CC1)[C@@H]2CO	9.3	4.0	5.3
C[C@@H]1CN([C@H](C)CO)C(=O)CCCn2cc(nn2)CO[C@@H]1CN(C)C(=O)Nc1ccc(F)cc1	4.6	1.7	2.9
O=C(C[C@H]1CC[C@H]2[C@@H](COC[C@H](O)CN2S(=O)(=O)c2ccccc2)O1)NCCN1CCCC1	16.7	13.3	3.4
CO[C@@H]1CC[C@@H]2CCN(C)C(=O)C[C@@H](c3ccccc3)CN(C)C(=O)c3cccc(C#N)c3OC[C@@H]1O2	1.8	16.8	-15.0
CCC(=O)N1C[C@H](C)[C@H](OC)CN(C)C(=O)c2cc(NC(=O)c3ccccc3)ccc2OC[C@@H]1C	1.9	3.5	-1.6
COc1ccccc1NC(=O)N1CC[C@@H]2[C@H]1c1cc(-c3ccc(F)cc3)ccc1N(C)[C@H]2CO	?	nt	nt
O=C(c1cccnc1)N1CC(=O)N2[C@H](CO)[C@H](c3ccc(C#CCC4CCCC4)cc3)[C@H]2C1	?	nt	nt

Next section (two carried over from the part before).
SMILES	DUX4 txn inh	DUX4 txn inh difference	DUX4 txn inh control
COc1ccccc1NC(=O)N1CC[C@@H]2[C@H]1c1cc(-c3ccc(F)cc3)ccc1N(C)[C@H]2CO	?	nt	nt
O=C(c1cccnc1)N1CC(=O)N2[C@H](CO)[C@H](c3ccc(C#CCC4CCCC4)cc3)[C@H]2C1	?	nt	nt
COc1ccc(NC(=O)N2CCCCN3[C@@H](CO)[C@H](c4ccc(C#Cc5ccccn5)cc4)[C@@H]3C2)cc1	16.7	5.7	11.0
CO[C@H]1CN(C)C(=O)c2cc(NC(C)=O)ccc2OC[C@@H](C)N(C(=O)C2CC2)C[C@H]1C	-0.1	2.3	-2.4
C[C@H]1CN([C@@H](C)CO)C(=O)CCCn2cc(nn2)CO[C@@H]1CN(C)C(=O)Nc1cccc(C(F)(F)F)c1	3.4	1.9	1.5
Cc1ccc(S(=O)(=O)N(C)C[C@H]2OCCCC[C@H](C)Oc3ccc(NC(=O)c4ccncc4)cc3C(=O)N([C@H](C)CO)C[C@@H]2C)cc1	0.0	-1.5	1.6
COCC(=O)Nc1ccc2c(c1)C(=O)N(C)[C@H]1CC[C@@H](CC(=O)NC3Cc4ccccc4C3)O[C@H]1CO2	1.8	-3.8	5.7
CN1C[C@@H]2[C@H](c3ccccc31)[C@@H](CO)N2C(=O)Nc1ccccc1	1.9	1.6	0.3
COCC(=O)NC[C@H]1[C@@H](c2ccc(-c3ccccc3)cc2)[C@@H](CO)N1C(C)=O	-2.5	-10.4	7.9
Cc1ccccc1S(=O)(=O)N1CC[C@@H]2[C@@H](CO)N(C)c3ccc(-c4ccccc4)cc3[C@@H]21	-5.4	-3.7	-1.7
COc1cccc(C#Cc2ccc([C@H]3[C@@H](C#N)N(C(=O)C4CCC4)[C@@H]3CO)cc2)c1	2.1	0.1	2.0
C[C@H](CO)N1C[C@H](C)[C@@H](CN(C)C(=O)Nc2ccc(C(F)(F)F)cc2)Oc2ccc(NC(=O)Cn3cnnn3)cc2CC1=O	-1.1	-4.2	3.2
CC(=O)N1CC2(C1)[C@H](c1ccccc1)[C@@H](CO)N2C(=O)c1ccncc1	-6.2	-9.2	3.0
C[C@H](CO)N1C[C@H](C)[C@H](CN(C)C(=O)Nc2cccc(C(F)(F)F)c2)OCc2ccccc2-c2ccccc2C1=O	?	nt	nt

Single records, as listed above.
Entry for COCC(=O)NC[C@H]1[C@@H](c2ccc(-c3ccccc3)cc2)[C@@H](CO)N1C(C)=O : DUX4 txn inh: -2.5; DUX4 txn inh difference: -10.4; DUX4 txn inh control: 7.9
Entry for CCC(=O)N1C[C@H](C)[C@H](OC)CN(C)C(=O)c2cc(NC(=O)c3ccccc3)ccc2OC[C@@H]1C : DUX4 txn inh: 1.9; DUX4 txn inh difference: 3.5; DUX4 txn inh control: -1.6

(listing goes on)
SMILES	DUX4 txn inh	DUX4 txn inh difference	DUX4 txn inh control
COc1ccc(NC(=O)Nc2ccc3c(c2)C(=O)N([C@H](C)CO)C[C@H](C)[C@H](CN(C)S(=O)(=O)c2cn(C)cn2)O3)cc1	-2.3	2.0	-4.2
COc1ccc(C#Cc2cccc(-c3nc(C(=O)O)cc4c3[C@H](CCO)N(S(=O)C(C)(C)C)C4)c2)cc1OC (stereo not given in full)	2.6	8.6	-6.0
C/C=C/c1ccc([C@@H]2[C@@H](CO)N3CCCCN(C(=O)Nc4cc(F)ccc4F)C[C@H]23)cc1	-7.5	-30.1	22.6
Cc1ccccc1S(=O)(=O)N1CC(=O)N2[C@H](CO)[C@@H](c3ccc(C#CCC4CCCC4)cc3)[C@@H]2C1	0.6	4.3	-3.7
CN(C)C(=O)C[C@@H]1C[C@@H]2c3cc(NC(=O)NC4CCCC4)ccc3O[C@@H]2[C@@H](CO)O1	0.4	-6.2	6.6
COc1cccc(S(=O)(=O)Nc2ccc3c(c2)[C@H]2C[C@H](CC(=O)N[C@@H](C)c4ccccc4)O[C@H](CO)[C@H]2O3)c1	-9.2	-1.6	-7.6
CC(C)C(=O)Nc1ccc2c(c1)C(=O)N(C)[C@@H]1CC[C@H](CC(=O)NC3CCCC3)O[C@@H]1CO2	0.3	4.3	-3.9
COc1cccc(-c2ccc3n(c2=O)C[C@@H]2[C@@H](CO)[C@H](C(=O)N(C)C)N(C(=O)C4CCC4)[C@H]32)c1	0.8	-5.0	5.7
C[C@@H]1CCCCO[C@@H](CN(C)C(=O)C2CCCCC2)[C@H](C)CN([C@H](C)CO)C(=O)c2cc(NC(=O)c3ccncc3)ccc2O1	2.3	-1.4	3.8
COCC(=O)Nc1ccc2c(c1)[C@@H]1C[C@@H](CC(=O)N(C)C)O[C@H](CO)[C@@H]1O2	8.1	4.3	3.8
C[C@H](CO)N1C[C@H](C)[C@@H](CN(C)C(=O)Nc2ccc(F)cc2)Oc2cc(-c3ccncc3)ccc2S1(=O)=O	-1.5	-4.6	3.2
O=C(C1CCC1)N1CCCCN2[C@H](CO)[C@H](c3ccc(C#CC4(O)CCCC4)cc3)[C@H]2C1	7.9	6.9	1.0
CCCNC[C@@H]1[C@@H](c2ccc(C3=CCCC3)cc2)[C@@H](CO)N1C(=O)C1CCCC1	-4.6	-13.4	8.8
C[C@H]1CCCCO[C@H](CN(C)S(=O)(=O)c2ccccc2)[C@@H](C)CN([C@@H](C)CO)C(=O)c2cc(NC(=O)CCC(F)(F)F)ccc2O1	0.0	-0.8	0.8
Cc1ccc(S(=O)(=O)NCC[C@H]2CC[C@H](NC(=O)c3cccnc3)[C@H](CO)O2)cc1	1.3	-3.0	4.4
C[C@@H]1CN([C@@H](C)CO)S(=O)(=O)c2ccc(C#Cc3ccccc3F)cc2O[C@H]1CN(C)CC1CCOCC1	-2.3	-6.0	3.6
CN1C(=O)c2cc(NS(=O)(=O)c3ccc(Cl)cc3)ccc2OC[C@@H]2O[C@H](CC(=O)N3CCc4ccccc4C3)CC[C@H]21	-1.5	-3.1	1.6
C[C@@H]1CN([C@H](C)CO)C(=O)c2cc(C#Cc3ccncc3)cnc2O[C@H]1CN(C)S(=O)(=O)c1ccccc1F	-2.7	-1.1	-1.6
O=S(=O)(c1cccc(F)c1)N1CC[C@@H]2[C@@H](CO)Nc3ccc(C#Cc4cccc(F)c4)cc3[C@@H]21	?	nt	nt
N#C[C@H]1[C@H](c2ccc(C#Cc3cccc(F)c3)cc2)[C@@H](CO)N1C(=O)C1CCCC1	0.0	-0.6	0.6
COc1ccc2c3c(n(C)c2c1)[C@@H](CO)N(CC1CC1)CC31CCN(C(C)=O)CC1	13.0	6.3	6.7
CO[C@H]1CN(C)C(=O)c2cc(NC(=O)Nc3cc(F)ccc3F)ccc2OC[C@H](C)NC[C@H]1C	-4.7	2.1	-6.8
C[C@@H](O)C#Cc1ccc([C@H]2[C@H]3CN(C(=O)c4ccc5c(c4)OCO5)CCCCN3[C@H]2CO)cc1	29.8	31.6	-1.8
O=C(C[C@@H]1CC[C@@H]2[C@H](COC[C@H](O)CN2Cc2cccc(F)c2)O1)NCCc1ccncc1	8.6	9.0	-0.4
Cc1ccccc1S(=O)(=O)N1C[C@H]2[C@@H](c3ccccc31)[C@H](CO)N2C(=O)CC1CC1	-2.0	-3.9	1.8
Cc1nn(C)cc1NC(=O)C[C@H]1CC[C@@H]2[C@@H](COc3ccc(NC(=O)Nc4cccc(Cl)c4)cc3C(=O)N2C)O1	-1.1	-2.2	1.2
CO[C@H]1CC[C@H]2CCOc3c(C#N)cccc3C(=O)N(C)C[C@H](C)C(=O)N(C)C[C@@H]1O2	-0.5	-1.7	1.2
CN(C)CC(=O)N[C@H]1CC[C@H](CC(=O)O)O[C@H]1CO	-0.3	-0.8	0.5
C[C@@H](NC(=O)[C@@H]1[C@@H](CO)[C@@H]2Cn3c(ccc(-c4ccccc4F)c3=O)[C@H]1N2C)c1ccccc1	1.7	2.8	-1.1
C[C@@H]1CN([C@H](C)CO)C(=O)CCCn2nncc2CO[C@H]1CN(C)C(=O)OCc1ccccc1	7.9	7.1	0.8
Cc1nn(C)cc1NC(=O)C[C@H]1CC[C@H]2[C@@H](COc3ccc(NC(=O)NC(C)C)cc3C(=O)N2C)O1	0.9	-6.4	7.3
CCC(=O)N1CCCCN2[C@H](CO)[C@@H](c3ccc(-c4cccnc4)cc3)[C@H]2C1	13.1	8.5	4.7
O=C(c1cccc(F)c1)N1CCCCN2[C@H](C1)[C@@H](c1ccc(-c3cncnc3)cc1)[C@@H]2CO	23.6	17.4	6.1
C[C@H](CO)N1C[C@H](C)[C@H](CN(C)Cc2ccccc2C(=O)O)Oc2ncc(C3=CCCCC3)cc2C1=O	0.1	2.2	-2.1
C[C@@H]1CN([C@H](C)CO)C(=O)c2cc(-c3ccc(C#N)cc3)cnc2O[C@H]1CN(C)Cc1cccnc1	3.6	0.1	3.5
COc1cccc(-c2ccc3c(c2)[C@@H]2[C@@H](CCN2S(=O)(=O)c2ccc(F)cc2)[C@H](CO)N3C)c1	?	nt	nt
O=C(CN1CCOCC1)N1CCCCN2[C@H](C1)[C@@H](c1ccc(C#Cc3ccccc3F)cc1)[C@@H]2CO	?	nt	nt
C/C=C/c1ccc([C@H]2[C@H](C#N)N(c3nc(-c4ccccc4)cs3)[C@H]2CO)cc1	-0.7	1.1	-1.8
C[C@H](NC(=O)[C@@H]1N[C@@H]2c3ccc(-c4ccc(C(=O)N(C)C)cc4)c(=O)n3C[C@@H]2[C@H]1CO)c1ccccc1	3.1	5.7	-2.6
C[C@@H]1CCCCO[C@@H](CN(C)C(=O)Cc2ccccc2)[C@@H](C)CN([C@H](C)CO)C(=O)c2cc(NC(=O)Nc3ccc(C(F)(F)F)cc3)ccc2O1	-0.9	-0.1	-0.7
CN1C(=O)c2cc(NC(=O)c3cccc(F)c3)ccc2OC[C@H]2O[C@H](CC(=O)NC3CCC3)CC[C@@H]21	2.5&0.7	-3.1&-3.2	5.6&3.8
N#Cc1ccc(-c2ccc3c(c2)[C@H]2[C@H](CCN2C(=O)Cc2ccccc2)[C@H](CO)N3)cc1	?	nt	nt
CO[C@@H]1CN(C)C(=O)c2cc(NS(=O)(=O)c3cn(C)cn3)ccc2OC[C@H](C)N(CC2CC2)C[C@@H]1C	2.6	-2.0	4.6
COc1ccc(CN2C[C@H](O)COC[C@H]3O[C@H](CC(=O)N4CCc5ccccc5C4)CC[C@@H]32)cc1	?	nt	nt
OC[C@@H]1Nc2ccc(-c3cccc(F)c3)cc2[C@H]2[C@@H]1CCN2Cc1ccncc1	?	nt	nt
O=C(NCC1CC1)[C@H]1[C@H](CO)[C@H]2Cn3c(ccc(-c4ccccc4)c3=O)[C@H]2N1CC1CC1	-2.6	0.2	-2.8
CCN1[C@@H]2c3ccc(-c4ccccc4)c(=O)n3C[C@@H]2[C@@H](CO)[C@@H]1C(=O)N1CCN(C)CC1	-0.1	0.3	-0.3
CC(=O)N1CC(=O)N2[C@@H](CO)[C@H](c3ccc(-c4ccc(C#N)cc4)cc3)[C@@H]2C1	7.7	-7.4	15.1
COc1ccc2c3c(n(C)c2c1)[C@@H](CO)N(Cc1ccc2c(c1)OCO2)CC31CN(C)C1	-3.0	-2.7	-0.3
COc1cccc(S(=O)(=O)N2C[C@@H](O)COC[C@@H]3O[C@H](CC(=O)N4CCN(C)CC4)CC[C@H]32)c1	1.3	-5.6	7.0
CCCC#Cc1ccc([C@@H]2[C@@H](CO)N(C(=O)C3CCC3)[C@H]2C#N)cc1	-0.9	-0.7	-0.2

Only part of the results is shown. The share of hits here may be higher or lower than overall.
